# Compound activity from PubChem.
# Rce1 inhib: yeast Rce1p protease inhibitors, primary screen, biochemical, fluorescence, cell-free homogeneous. CAAX prenyl protease 2 (Saccharomyces cerevisiae (strain ATCC 204508 / S288c)), Q03530. yeast membranes, quenched prenylated peptide cleavage fluorescence. calls only. 290,000 compounds, 0.27% hits;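 active = fall in fluorescence gain of 50% or more versus controls, with final raw signal at or below 3038400; inconclusive = same 50% fall but final raw signal above 3038400; inactive = fall in fluorescence gain under 50%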;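 also: plate controls were neutral control wells for no effect and wells lacking membranes for full effect; tested at 10 µM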
# Target sequence (Q03530 whole entry, looked up): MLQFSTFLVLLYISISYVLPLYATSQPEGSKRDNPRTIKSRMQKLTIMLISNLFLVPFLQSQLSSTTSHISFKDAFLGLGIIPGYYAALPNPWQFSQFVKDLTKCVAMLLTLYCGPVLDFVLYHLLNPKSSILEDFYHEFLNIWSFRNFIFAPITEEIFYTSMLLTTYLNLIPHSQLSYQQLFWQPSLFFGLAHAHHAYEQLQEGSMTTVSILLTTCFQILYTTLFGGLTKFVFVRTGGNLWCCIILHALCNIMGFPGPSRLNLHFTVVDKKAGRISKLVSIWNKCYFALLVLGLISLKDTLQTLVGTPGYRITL
# CSC inhib: cancer stem cell viability inhibitors, primary screen, luminescence | inhibition, % at 7.5 µM | cancer stem cell-like cells viability | 300,000 compounds, 1.1% hits;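 active = mean at 75% or more and at least half the replicates too; inconclusive = mean and replicates disagree; tested in HMLE shEcad cells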;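 also: 0% = median of negative and 100% = median of positive control wells; the first replicate is given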
# Yeast UUG start: modulators of yeast start codon fidelity, primary screen, whole organism, S. cerevisiae, single point, plate reader. S. cerevisiae UUG-firefly luciferase reporter, luminescence/redox ratio. activity score, % at 18.7 µM. 350,000 compounds, 0.13% hits;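 active = replicate mean at a twofold rise or more, about +100% in these data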;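 also: firefly luciferase made from a UUG start codon reports start codon fidelity; reporter light over untreated wells divided by growth signal over untreated wells; some hits fall short of that in this replicate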
# Env fusion inh: inhibitors of HIV-1 Env-driven cell-cell fusion, primary screen, HeLa-JRFL effector, CEM21 target cells, luciferase | inhibition, % at 12.3 µM | 360,000 compounds, 1.1% hits | AID 651610, 2012;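 active = mean replicate inhibition score of at least 50 and every replicate individually at or above 50; inconclusive = only one of the two criteria met; inactive = mean below 50 and not all replicates reaching 50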;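 also: 0% = plate neutral controls and 100% = maraviroc near 300 nM; one replicate is shown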
# eIF4H inh: human eIF4H binding inhibitors, primary screen, translation initiation inhibitor project, biochemical, uHTS, fluorescence polarization. Eukaryotic translation initiation factor 4H (Homo sapiens), Q15056. eIF4H fluorescence polarization binding assay. inhibition, % at 35 µM. 290,000 compounds, 0.94% hits. AID 2012, 2009;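 active = 50% or more with normal probe brightness, or confirmed in later tests; inconclusive = above 50% with abnormal brightness, or retests that disagree; inactive = below 50% or failed in later tests; about a fifth of its hits are not listed in these tables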;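 also: calls also rest on retests at 20 µM and on dose response follow-up; 0% = protein and probe with vehicle and 100% = probe without protein; strong numbers were not always called active; many hits fall short of the cut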
# MT1-MMP act inh: blockers of MT1-MMP proenzyme processing, primary screen, HT1080 RFP-PRO-GFP cells, GFP/RFP fluorescence. GFP/RFP ratio fluorescence, overnight; percent of plate control window, DMSO zero. 360,000 compounds, 0.061% hits. GFP/RFP ratio change, % at 20 µM. Matrix metalloproteinase-14 (Homo sapiens), P50281;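 active = GFP/RFP ratio change of at least 30% with cell ATP level not reduced by more than half and red fluorescence within 50% of control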; also: strong numbers were not always called active
#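 Test system: HT1080 cells expressing an RFP-PRO-GFP fluorescent reporter construct / Compound dosing: single-point 20 µM compound, 1% DMSO / Schedule: cells overnight before dosing, compound overnight, 37 °C, 5% CO2 / Evaluation: GFP/RFP fluorescence ratio / Control set: DMSO and RFP-L50D-GFP cell wells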
# PABP polyA inh: PABP poly(A) RNA binding inhibitors, primary screen, biochemical, fluorescence polarization, uHTS. AID 2014, 2009. 290,000 compounds, 1% hits. Polyadenylate-binding protein 1 (Homo sapiens), P11940. inhibition, % at 35 µM;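 active = 50% or more with normal probe brightness, or confirmed in later tests; inconclusive = above 50% with abnormal brightness, or retests that disagree; inactive = below 50% or failed in later tests; about a fifth of its hits are not listed in these tables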;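 also: calls also rest on retests at 20 µM and on dose response follow-up; controls were probe without protein and protein plus probe with vehicle; some compounds called inactive have numbers as strong as hits; many hits fall short of the cut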
# eIF4H inh retest: also measured in eIF4H inh; calls as there; inhibition, %; compound at 20 µM; confirmation average;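 mean of two retest wells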
# PABP polyA inh retest: recorded beside PABP polyA inh, whose call it bears; inhibition, %; compound at 20 µM; confirmation repeats;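 mean of two retest wells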
# MT1-MMP act inh RFP: also measured in MT1-MMP act inh; calls as there; RFP signal change, %; measured here: RFP expression control read;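 0 = vehicle wells; hits needed this value within 50% of zero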
# * hit, by the source's call; i = inactive; ? = inconclusive; · = no result given; + = active, no number. An excerpt (hit frequency here may not be typical).
SMILES,Rce1 inhib,CSC inhib,Yeast UUG start,Env fusion inh,eIF4H inh,MT1-MMP act inh,MT1-MMP act inh RFP,PABP polyA inh,others
CC(C)CC(=O)N1CCN(S(C)(=O)=O)CC1,i,-1,·,·,0,-1,3,-2,
CCOC(=O)C1Sc2ccccc2NC1=O (centres undefined),i,-17,5,7,6,-1,0,-6,
COCCCNC(=O)CNC(=S)N(Cc1ccccc1F)C1CCCCC1,i,0,-21,-21,-7,2,1,-9,
O=C(Nc1ccc2c(c1)OCO2)C1CCN(C(=O)c2ccc([N+](=O)[O-])cc2)CC1,i,-6,·,-6,4,-1,4,-4,
COc1cccc(C(=O)NCCCc2ccccc2)c1OC,·,·,-18,-10,·,1,1,·,
Cc1nc2ccccc2c(=O)n1NCc1cccs1,i,-2,6,·,-1,1,-2,-3,
CC(C)=NOc1nc(N2CCOCC2)nc(N2CCOCC2)n1,i,-7,-17,-4,-10,4,3,4,
COc1ccc(/C=N/Nc2cc(N3CCOCC3)nc(C)n2)c(OC)c1,i,-3,7,0,5,0,-5,-2,
Cc1ccc2nc(SCC(=O)N3CCC(Cc4ccccc4)CC3)nc(=O)n2c1,i,-6,·,17,·,-2,-12,·,
Cc1ccc(OCC(=O)NNC(=O)C(=O)NC(C)(C)C)cc1,i,2,·,-17,11,3,1,0,
Cc1ccc(S(=O)(=O)NC(C)(C)CN2CCc3ccccc3C2)cc1,i,7,-17,-10,-4,-1,1,-7,
O=C(CN1CCOCC1)Nc1ccccc1F,i,·,-8,-90,1,-1,4,-2,
Cc1scc(C(=O)NNC(=S)NCc2ccccc2)c1C,i,-2,·,6,1,5,2,7,
COc1ccc(Br)cc1C1CC(=O)N2CN(C)CSC2=C1C#N (centres undefined),i,-6,0,·,10,0,2,-2,
COc1ccc2c(c1OC)C[N+]1([O-])CCc3cc4c(cc3C1C2)OCO4 (centres undefined),i,-4,1,-10,4,-1,1,-9,
C[C@@H]1COC(=O)[C@@H](Cc2ccc(F)cc2)C/C=C\C[C@H](CC(=O)N(CCO)Cc2ccccc2)C(=O)N1,·,3,-1,·,·,-1,-4,·,
O=C(O)c1ccc(-c2noc(-c3ccc(F)cc3)n2)cc1,i,8,-63,-112,·,-1,3,·,
O=C(c1cc2ccccc2cc1O)N1CCN(c2ccccn2)CC1,i,-14,-4,-2,-10,4,3,1,
CC(=O)C1=C(O)C(=O)N(c2cccc(C(=O)O)c2)C1c1ccc(F)cc1 (centres undefined),i,-43,-17,3,?,-2,5,54*,PABP polyA inh retest=122*
CC(=O)N1CCOc2ccc(S(=O)(=O)NCC3CCC(C(=O)NCCC(C)C)CC3)cc21 (centres undefined),i,-10,13,1,-8,13,-9,-7,

# Two entries drawn at random from the list so far:
SMILES,Rce1 inhib,CSC inhib,Yeast UUG start,Env fusion inh,eIF4H inh,MT1-MMP act inh,MT1-MMP act inh RFP,PABP polyA inh,others
CC(C)CC(=O)N1CCN(S(C)(=O)=O)CC1,i,-1,·,·,0,-1,3,-2,
COc1ccc(Br)cc1C1CC(=O)N2CN(C)CSC2=C1C#N (centres undefined),i,-6,0,·,10,0,2,-2,

# New compounds follow.
SMILES,Rce1 inhib,CSC inhib,Yeast UUG start,Env fusion inh,eIF4H inh,MT1-MMP act inh,MT1-MMP act inh RFP,PABP polyA inh,others
Fc1ccccc1CSc1ccc(-c2ccco2)nn1,i,0,·,-80,77,3,2,5,eIF4H inh retest=-2;PABP polyA inh retest=-7
Cc1nc2sc(C(c3ccccc3)N3CCN(CCO)CC3)c(O)n2n1 (centres undefined),i,11,-14,-24,-7,-2,1,2,
CCc1nc2oc(C(=O)c3ccccc3)c(N)c2c2c1COC(C)(C)C2,i,-5,·,·,3,0,0,4,
c1ccc(C2=Nc3ccccc3NC(c3ccccc3)C2)cc1 (centres undefined),i,-3,-11,-83,6,-11,2,9,
Cc1ccc(C(C)(C)C)c(OCCN2CCCC2)c1,i,7,3,·,-6,-7,4,-16,
CSc1ccc(CN2CCC2(C)C(=O)NC2CCN(Cc3ccccc3)CC2)cc1 (centres undefined),·,·,3,8,·,1,0,·,
CCN(C(=O)CSc1nc2ccc(OC)cc2[nH]1)c1c(N)n(Cc2ccccc2)c(=O)[nH]c1=O,i,-11,-26,-52,·,5,3,·,
COc1ccccc1-c1noc(CSc2nc(N)cc(=O)[nH]2)n1,i,-6,-1,0,-4,3,-2,-8,
Cc1ccccc1CSCc1nc2ccccc2[nH]1,i,1,·,5,4,4,-3,9,
Cc1cnc(NC(=O)COc2cccc3c2OC(C)(C)C3)s1,i,-8,-22,·,5,-9,-1,0,
Cc1nn(CCCC(=O)Nc2nccs2)c(C)c1[N+](=O)[O-],i,-13,-12,-9,9,0,4,-7,
COc1ccc(OCC(=O)NNC(=O)c2cccc(S(=O)(=O)N(C)C)c2)cc1,i,-11,2,3,-7,3,-3,0,
CC(C)(C)c1ccc(/C=N/NC(=O)c2ccccn2)cc1,i,-3,·,-74,-3,5,-2,-2,
COc1ccccc1CCN1CCCC(CN(C)Cc2ccc(OCCO)cc2)C1 (centres undefined),i,12,-6,-7,-2,7,2,2,
CC(=NOC(=O)C1CCCCC1)c1nccs1,·,·,-19,-2,·,0,6,·,
Cc1c(OCc2ccc(C(=O)O)cc2)ccc2c(-c3ccccc3)cc(=O)oc12,i,10,-9,-9,2,-3,-27,4,
COc1ccccc1N1CCN(Cc2ccc(OC)c(OC)c2OC)CC1,i,-7,-9,-16,4,0,7,-6,
O=C(OCc1ccc([N+](=O)[O-])cc1)c1ccccn1,i,-10,-9,-15,1,-1,1,9,
O=C(Cc1ccc(S(=O)(=O)N2CCCC2)s1)N1CCN(c2ccccc2)CC1,i,-8,·,20,44,0,0,3,
Cc1ccc(S(=O)(=O)NCc2ccc(C(=O)NCc3cccnc3)cc2)cc1,i,·,·,·,-3,·,·,-8,

# Arranged by molecular weight (ascending): five of the compounds above.
SMILES,Rce1 inhib,CSC inhib,Yeast UUG start,Env fusion inh,eIF4H inh,MT1-MMP act inh,MT1-MMP act inh RFP,PABP polyA inh,others
CCOC(=O)C1Sc2ccccc2NC1=O (centres undefined),i,-17,5,7,6,-1,0,-6,
CC(C)=NOc1nc(N2CCOCC2)nc(N2CCOCC2)n1,i,-7,-17,-4,-10,4,3,4,
Cc1ccc2nc(SCC(=O)N3CCC(Cc4ccccc4)CC3)nc(=O)n2c1,i,-6,·,17,·,-2,-12,·,
COc1ccccc1CCN1CCCC(CN(C)Cc2ccc(OCCO)cc2)C1 (centres undefined),i,12,-6,-7,-2,7,2,2,
CC(=O)N1CCOc2ccc(S(=O)(=O)NCC3CCC(C(=O)NCCC(C)C)CC3)cc21 (centres undefined),i,-10,13,1,-8,13,-9,-7,

# (listing goes on)
SMILES,Rce1 inhib,CSC inhib,Yeast UUG start,Env fusion inh,eIF4H inh,MT1-MMP act inh,MT1-MMP act inh RFP,PABP polyA inh,others
CCN1CCN(CCOc2ccccc2OCc2ccccc2)CC1,i,-7,·,-7,7,-1,0,6,
COc1ccc([N+](=O)[O-])cc1NC(=O)C(C)Sc1ccc(C)cc1 (centres undefined),i,·,·,9,-2,3,-4,11,
CCN1C(=O)[C@H]2[C@@H](c3ccc(-c4ccc(F)cc4)c(OC)c3)N[C@@](Cc3ccccc3)(C(=O)OC)[C@H]2C1=O,·,·,-24,-12,·,0,-7,·,
CC(=O)c1ccc(N2CCN(C(=O)c3cc4c(C)nc5ccccc5c4o3)CC2)cc1,i,2,-12,1,-6,-2,-8,-5,
CCOC(=O)Cc1csc(NC(=O)COc2cc(C)cc(C)c2)n1,i,-5,·,19,6,0,0,-3,
CCCCCC(=O)N/N=C/c1cc(Br)c(O)c(OC)c1,i,·,·,-29,5,6,2,11,
Cc1cccc2nc(-c3ccco3)c(Nc3ccc4c(c3)OCO4)n12,i,-13,-3,27,?,1,0,-9,
CCOC(=O)Nc1nc(C)c(C(=O)N(C)C)s1,i,-9,-3,-89,-8,4,7,-6,
Cc1ccc(C)c(N2CCN(c3ccc([N+](=O)[O-])cn3)CC2)c1,i,21,0,30,-6,0,-1,13,
Fc1ccc(/C=C\c2nccc3c2[nH]c2ccccc23)cc1,?,30,-11,-10,-6,-16,-12,-6,
C=CCNC(=O)N1CCCC(C(=O)c2cccc(OC(C)C)c2)C1 (centres undefined),i,-11,-2,-9,-9,1,-2,-5,
COc1ccc(C(=O)NCC(=O)Nc2ccccc2)cc1OC,i,-6,-5,·,3,4,7,29,
O=C(NC1CCCCC1)c1nn2c(C(F)(F)F)cc(-c3ccco3)nc2c1Br,i,7,-19,·,10,-9,6,-2,
CNC(=O)NC(=O)Cn1nc2n(c1=O)-c1ccccc1SC2,i,-3,·,-2,6,-2,0,4,
CSCCC(NC(=O)c1ccco1)C(=O)OCC(=O)Nc1ncc(Cl)c(C)c1Cl (centres undefined),i,-21,·,·,4,3,0,8,
Cc1cc(NC(=O)COc2ccc(Cl)cc2Cl)n(-c2ccccc2)n1,i,-3,·,·,-5,-3,-19,-11,
O=CN1CCN(CC(O)Cn2c3ccccc3c3ccccc32)CC1 (centres undefined),i,-3,-1,-2,-14,3,2,5,
CCOCCCn1c(=NC(=O)c2cccs2)c(C#N)cc2c(=O)n3cccc(C)c3nc21,i,1,-12,5,55,1,-3,34*,eIF4H inh retest=22;PABP polyA inh retest=60*
COc1ccc([C@H]2CC(=O)C=C(c3cccc(NC(C)=O)c3)C2)cc1,·,11,-13,-13,·,6,3,·,
CCn1c(=O)c2c(nc3n2CCCN3CCc2ccccc2)n(C)c1=O,·,-4,-13,·,0,3,-1,-9,

# A section from the list above:
SMILES,Rce1 inhib,CSC inhib,Yeast UUG start,Env fusion inh,eIF4H inh,MT1-MMP act inh,MT1-MMP act inh RFP,PABP polyA inh,others
Cc1cc(NC(=O)COc2ccc(Cl)cc2Cl)n(-c2ccccc2)n1,i,-3,·,·,-5,-3,-19,-11,
O=CN1CCN(CC(O)Cn2c3ccccc3c3ccccc32)CC1 (centres undefined),i,-3,-1,-2,-14,3,2,5,
CCOCCCn1c(=NC(=O)c2cccs2)c(C#N)cc2c(=O)n3cccc(C)c3nc21,i,1,-12,5,55,1,-3,34*,eIF4H inh retest=22;PABP polyA inh retest=60*

# Next compounds follow.
SMILES,Rce1 inhib,CSC inhib,Yeast UUG start,Env fusion inh,eIF4H inh,MT1-MMP act inh,MT1-MMP act inh RFP,PABP polyA inh,others
O=C(CN1C(=O)NC2(CCCC2)C1=O)NCc1ccc(F)cc1,·,-10,·,-6,·,0,4,·,
O=C(O)CCCC[C@@H]1SC[C@@H]2NC(=O)N[C@@H]21,+,-5,-11,·,·,6,9,·,
Cc1ccc(NC(=O)CNC(=O)c2cccs2)nc1,i,15,-6,-14,·,-3,2,·,
O=C(O)CN1C(=O)C(=O)N(Cc2cccc(F)c2)C1=O,i,-4,-16,14,-2,-3,3,6,
COCCN(C(=O)CSc1nnc(-c2cccc(C)c2)n1C)c1c(N)n(Cc2ccccc2)c(=O)[nH]c1=O,i,-8,·,-9,7,-1,-3,7,
